Bioassay records (PubChem BioAssay)
GIV-Gai inh: inhibitors of GIV peptide binding to Galpha-i3, primary screen, biochemical, fluorescence polarization, FITC-GIV GBA peptide, rat Galphai3. 90 min; active compounds read low; scaled: aluminum fluoride 0%, vehicle 100%. percent of control (FP), % (no concentration beside the values). 0.42% of 210,000 active;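 active = replicate mean at 85% of control or lower, very high polarization wells dropped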;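 also: wells of about 15 µL received 100 nL stock; the first replicate is given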
Target sequence (P08753 whole entry, looked up): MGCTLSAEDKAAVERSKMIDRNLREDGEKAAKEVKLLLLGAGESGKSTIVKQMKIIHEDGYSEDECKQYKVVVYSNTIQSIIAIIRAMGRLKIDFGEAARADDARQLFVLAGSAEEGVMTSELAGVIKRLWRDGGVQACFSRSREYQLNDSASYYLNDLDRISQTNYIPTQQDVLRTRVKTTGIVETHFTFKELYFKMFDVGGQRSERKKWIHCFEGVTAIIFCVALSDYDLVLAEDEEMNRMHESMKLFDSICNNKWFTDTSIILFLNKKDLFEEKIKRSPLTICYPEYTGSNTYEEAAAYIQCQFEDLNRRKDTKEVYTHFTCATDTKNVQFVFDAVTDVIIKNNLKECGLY
Sa growth 42C: S. aureus growth inhibition at 42 and 30 °C, primary screen, LtaS inhibitor project, RN4220, two temperatures. relative growth, % (concentration not given with the values). OD600, 20 h, 42 °C; active compounds read low. 0.53% of 170,000 active;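 active = growth at 42 °C up to 50% and 20 or more points under that at 30 °C, or under 10% at both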;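 also: 300 nL library stock went into each well; scaled to the means of positive and negative controls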
HCMV UL50-53 inh: inhibitors of HCMV UL50-UL53 interaction, biochemical, HTRF. AID 1918969, 2023. normalized percent inhibition. inhibition, % (test concentration not listed). 0.15% of 190,000 active. HCMV UL50-UL53 nuclear egress complex (human cytomegalovirus);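 active = both replicates at 50% or more, plus weaker picks with an unusually low signal ratio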;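 also: stock transfer was 100 nL into about 20 µL; 0% = negative control wells and 100% = wells with untagged competitor protein; inactives centre near -12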
Sa growth 42C second temp: further read-out of Sa growth 42C, marked with its call; relative growth, %; measured here: growth at 30 °C;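 optical density after 20 h as mean of two plates; 100% = untreated growth and lower means inhibition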
* marks the source's active call; other numbers are inactive results; & = joins results of further samples.

Start of the data: the first 5 entries, ahead of the listing:
`CC(C)(C)n1cnc2cc(NCc3ccccc3O)ccc21` gave GIV-Gai inh 99.8, Sa growth 42C 84.4, HCMV UL50-53 inh -9.0 and Sa growth 42C second temp 85.3.
Screening CCc1cccc2cc(CN)c(=O)[nH]c12 returned GIV-Gai inh 102.8, Sa growth 42C 105.1, HCMV UL50-53 inh -0.2 and Sa growth 42C second temp 94.4.
`O=C(NC(=S)NNc1nc2ccccc2s1)c1ccco1` gave Sa growth 42C 74.8, HCMV UL50-53 inh -24.5 and Sa growth 42C second temp 65.7.
`CC(C)Cn1c(=O)c2ccccc2n2c(=O)n(CC(=O)Nc3ccc4c(c3)OCO4)nc12` gave GIV-Gai inh 96.4 and HCMV UL50-53 inh 12.4.
`CCOc1ccc(NC(=O)N(Cc2c[nH]c3ccccc23)C2CCCCCC2)cc1` gave GIV-Gai inh 103.8, Sa growth 42C 107.4, HCMV UL50-53 inh -18.8 and Sa growth 42C second temp 89.4.

All compounds of this part, repeating the preview:
`CC(C)(C)n1cnc2cc(NCc3ccccc3O)ccc21` gave GIV-Gai inh 99.8, Sa growth 42C 84.4, HCMV UL50-53 inh -9.0 and Sa growth 42C second temp 85.3.
Screening CCc1cccc2cc(CN)c(=O)[nH]c12 returned GIV-Gai inh 102.8, Sa growth 42C 105.1, HCMV UL50-53 inh -0.2 and Sa growth 42C second temp 94.4.
`O=C(NC(=S)NNc1nc2ccccc2s1)c1ccco1` gave Sa growth 42C 74.8, HCMV UL50-53 inh -24.5 and Sa growth 42C second temp 65.7.
`CC(C)Cn1c(=O)c2ccccc2n2c(=O)n(CC(=O)Nc3ccc4c(c3)OCO4)nc12` gave GIV-Gai inh 96.4 and HCMV UL50-53 inh 12.4.
`CCOc1ccc(NC(=O)N(Cc2c[nH]c3ccccc23)C2CCCCCC2)cc1` gave GIV-Gai inh 103.8, Sa growth 42C 107.4, HCMV UL50-53 inh -18.8 and Sa growth 42C second temp 89.4.
Screening CSc1sc(SC)c(C[n+]2ccccc2)c1C[n+]1ccccc1 returned Sa growth 42C 99.8, HCMV UL50-53 inh 6.4 and Sa growth 42C second temp 91.6.
Screening O=C(NC(=S)NNc1ncccc1-n1cccc1)c1ccccc1 returned GIV-Gai inh 99.6, Sa growth 42C 64.6, HCMV UL50-53 inh 29.8 and Sa growth 42C second temp 66.7.
Screening COc1ccc(NC(=O)c2ccco2)cc1NC(=O)COc1cccc(C)c1C returned GIV-Gai inh 106.0, Sa growth 42C 89.1, HCMV UL50-53 inh -35.5 and Sa growth 42C second temp 83.8.
`c1ccc2c(CN3CCSCC3)c[nH]c2c1` gave GIV-Gai inh 103.4, Sa growth 42C 108.7, HCMV UL50-53 inh 9.3 and Sa growth 42C second temp 95.1.
Screening COc1ccc(CNC(=O)c2cnc(Nc3ccccc3OC)c3ccccc23)cc1 returned GIV-Gai inh 103.5, Sa growth 42C 97.0 and Sa growth 42C second temp 86.9.
CC(C)CCN1C(=O)c2ccccc2C1C(=O)NCc1cccnc1 (stereo not drawn) was read as GIV-Gai inh 108.7, Sa growth 42C 101.9 and Sa growth 42C second temp 92.2.
For COc1ccc(C2=NCC(CSc3nc4cc(Cl)ccc4o3)S2)cc1 (stereo not drawn) the results were Sa growth 42C 105.6, HCMV UL50-53 inh -35.1 and Sa growth 42C second temp 91.8.
`COC(=O)c1ccccc1NC(=O)c1cc(-c2ccccc2O)on1` gave GIV-Gai inh 102.7, Sa growth 42C 105.9, HCMV UL50-53 inh -10.3 and Sa growth 42C second temp 89.4.
Cc1noc(C)c1NC(=O)Nc1cccc(-n2cccc2)c1 was read as GIV-Gai inh 119.6, Sa growth 42C 97.7, HCMV UL50-53 inh -24.7 and Sa growth 42C second temp 86.7.
Screening COC(=O)C1=C(C)N(c2ccccc2)/C(=C/c2cccs2)C1=O returned GIV-Gai inh 102.0, Sa growth 42C 111.3 and Sa growth 42C second temp 85.8.
For O=C(Nc1ccccc1C(=O)N1CCN(c2ccc(F)cc2)CC1)C1=CSCCO1 the results were GIV-Gai inh 105.1, Sa growth 42C 105.4, HCMV UL50-53 inh -31.7 and Sa growth 42C second temp 82.7.
COc1ccc(/C=C/C(=O)NNc2nc(C)cc(=O)[nH]2)cc1 was read as Sa growth 42C 87.1, HCMV UL50-53 inh -46.5 and Sa growth 42C second temp 85.5.
CCCN1C(=O)c2ccccc2NC1c1cccc(O)c1O (stereo not drawn) was read as Sa growth 42C 75.5, HCMV UL50-53 inh -20.6 and Sa growth 42C second temp 83.5.
For O=C(Nc1ccccc1)O/N=C1\CCc2ccccc21 the results were GIV-Gai inh 99.2, Sa growth 42C 100.8, HCMV UL50-53 inh -3.1 and Sa growth 42C second temp 85.1.
Screening CCOc1ccc(NC(=O)c2ncoc2-c2ccco2)cc1 returned GIV-Gai inh 103.2, Sa growth 42C 100.0 and Sa growth 42C second temp 85.1.
`Cc1[nH]c2ccc(C(=O)N3CCN(c4ccccc4F)CC3)cc2c1C` gave GIV-Gai inh 102.6, Sa growth 42C 99.9 and Sa growth 42C second temp 87.1.
CCCOC(=O)c1cc(=O)[nH]c2ccccc12 was read as GIV-Gai inh 104.1, Sa growth 42C 95.9&98.5, HCMV UL50-53 inh -36.1&-38.5 and Sa growth 42C second temp 83.1&87.8.
Screening O=S(=O)(CCC1CCCC/C1=N/O)c1ccc(Cl)cc1 (stereo not drawn) returned GIV-Gai inh 101.5, Sa growth 42C 93.7, HCMV UL50-53 inh -8.8 and Sa growth 42C second temp 82.3.
For CCSC1=NCCN1C(=O)c1ccc(S(=O)(=O)N(C)C)cc1 the results were GIV-Gai inh 107.9, Sa growth 42C 91.9, HCMV UL50-53 inh 9.5 and Sa growth 42C second temp 99.7.

Reprinted at random: 2 records from the list.
For O=C(Nc1ccccc1C(=O)N1CCN(c2ccc(F)cc2)CC1)C1=CSCCO1 the results were GIV-Gai inh 105.1, Sa growth 42C 105.4, HCMV UL50-53 inh -31.7 and Sa growth 42C second temp 82.7.
Screening CCOc1ccc(NC(=O)c2ncoc2-c2ccco2)cc1 returned GIV-Gai inh 103.2, Sa growth 42C 100.0 and Sa growth 42C second temp 85.1.

(cont.)
`CNC(=O)C(C)n1ccc2cc(S(=O)(=O)N3CCCC3)ccc21` (stereo not drawn) gave GIV-Gai inh 103.4, Sa growth 42C 87.9, HCMV UL50-53 inh -36.8 and Sa growth 42C second temp 91.3.
CCSC1=N/C(=C\c2cccnc2)C(=O)N1c1ccccc1 was read as GIV-Gai inh 100.7, Sa growth 42C 106.6 and Sa growth 42C second temp 86.3.
`CC(=O)N(Cc1c(C#N)c2ccccc2n1C)c1ccccc1` gave GIV-Gai inh 102.9, Sa growth 42C 111.3, HCMV UL50-53 inh -3.8 and Sa growth 42C second temp 91.8.
CCCC(=O)Nc1ccc(-c2nc3cc(C(C)C)ccc3o2)cc1 was read as GIV-Gai inh 102.8, Sa growth 42C 85.5 and Sa growth 42C second temp 85.6.
Cc1ccc(N2CC(C(=O)N3CCN(S(=O)(=O)c4ccc5c(c4)NC(=O)CO5)CC3)CC2=O)cc1 (stereo not drawn) was read as GIV-Gai inh 108.1 and HCMV UL50-53 inh -5.7.
For COc1ccc(C)cc1S(=O)(=O)N1CCN(c2cccc(Cl)c2)CC1 the results were GIV-Gai inh 97.1, Sa growth 42C 104.8, HCMV UL50-53 inh 1.0 and Sa growth 42C second temp 86.2.
For O=C(O)CCC(=O)N1CCc2ccccc21 the results were Sa growth 42C 91.3, HCMV UL50-53 inh -8.6 and Sa growth 42C second temp 87.9.
Screening Cc1ccc2[nH]cc(CCNC(=O)c3ccccc3)c2c1 returned GIV-Gai inh 106.0&102.9, Sa growth 42C 105.4, HCMV UL50-53 inh -0.5 and Sa growth 42C second temp 77.4.
`COC(=O)C1=C(C)N(c2ccc(OC)cc2)C(C)=C(C(=O)OC)C1c1ccccc1` gave GIV-Gai inh 94.1, Sa growth 42C 75.1 and Sa growth 42C second temp 84.1.
Screening CCc1nc(C)cn1S(=O)(=O)c1ccc2c(c1)OCCO2 returned GIV-Gai inh 99.3, Sa growth 42C 109.2, HCMV UL50-53 inh -6.1 and Sa growth 42C second temp 93.4.
CCC1=Nc2cc(C(=O)NC3CCCC3)ccc2Sc2ccc(Br)cc21 was read as GIV-Gai inh 103.9, Sa growth 42C 102.9, HCMV UL50-53 inh -6.0 and Sa growth 42C second temp 86.4.
Cc1cc(NC(C)c2ccccc2)cc(=O)n1Cc1ccco1 (stereo not drawn) was read as GIV-Gai inh 102.4, Sa growth 42C 91.0, HCMV UL50-53 inh 10.1 and Sa growth 42C second temp 62.7.
O=C(O)c1cccnc1SC1CC(=O)N(Cc2ccccc2)C1=O (stereo not drawn) was read as GIV-Gai inh 103.4, Sa growth 42C 117.5 and Sa growth 42C second temp 89.6.
`COC(=O)c1scc(C)c1NC(=O)C1=Cc2cc(Cl)ccc2OC1` gave GIV-Gai inh 103.8, Sa growth 42C 117.8, HCMV UL50-53 inh -17.4 and Sa growth 42C second temp 92.2.
For Cn1ncc(C(=O)Nc2cc(Cl)ccc2Cl)c1-n1cccc1 the results were GIV-Gai inh 99.7, Sa growth 42C 99.9, HCMV UL50-53 inh 6.2 and Sa growth 42C second temp 95.6.
For O=C1CC(NCCc2c[nH]c3ccc(Cl)cc23)C(=O)N1c1cccc(Cl)c1 (stereo not drawn) the results were GIV-Gai inh 102.1 and HCMV UL50-53 inh -18.8.
Screening CC(C)CNc1ncnc2c1sc1nc3c(cc12)COC(C)(C)C3 returned GIV-Gai inh 112.0, Sa growth 42C 105.3, HCMV UL50-53 inh -3.3 and Sa growth 42C second temp 103.1.
Screening CN1CCN(C(=O)c2cc(C3CC3)on2)CC1 returned GIV-Gai inh 103.6 and HCMV UL50-53 inh -13.0.
`CNC(=O)c1ccc(Nc2nnc(-c3ccc(C)c(S(=O)(=O)NC(C)(C)C)c3)c3ccccc23)cc1` gave GIV-Gai inh 102.2, Sa growth 42C 96.1, HCMV UL50-53 inh -2.4 and Sa growth 42C second temp 99.9.
Screening CCCCn1cc(S(=O)(=O)c2ccc(C)c(C)c2)c(=O)c2cc(F)c(N(CC)CC)cc21 returned GIV-Gai inh 106.7, Sa growth 42C 103.1 and Sa growth 42C second temp 96.8.
For Cn1c(=O)c2c(nc(S(C)(=O)=O)n2C)n(C)c1=O the results were GIV-Gai inh 101.1, Sa growth 42C 102.7 and Sa growth 42C second temp 92.8.
Screening CCc1nc2c(cnn2-c2ccccc2)c2nncn12 returned Sa growth 42C 95.4, HCMV UL50-53 inh -16.4 and Sa growth 42C second temp 82.0.
COc1ccc(/C=C/C(=O)NCCN=C2NS(=O)(=O)c3ccccc32)cc1 was read as GIV-Gai inh 105.6, Sa growth 42C 84.5 and Sa growth 42C second temp 92.2.
Screening O=C(Cn1c(-c2cscn2)nc2ccccc21)OCCOc1ccc(Br)cc1 returned Sa growth 42C 109.0, HCMV UL50-53 inh -39.2 and Sa growth 42C second temp 98.3.
For C=CCN(CC=C)Cn1nc(-c2c[nH]c3ccccc23)oc1=S the results were Sa growth 42C 42.7*, HCMV UL50-53 inh -29.7 and Sa growth 42C second temp 77.0*.
For Cc1nc2cccnc2n1-c1cc(C(=O)N2CCC(N3CCCCC3)CC2)ccc1Cl the results were GIV-Gai inh 102.3 and HCMV UL50-53 inh -9.8.
For C=CCn1c(SCC(=O)Nc2ncc3c(n2)CC(c2ccccc2)CC3=O)nnc1-c1ccccc1 (stereo not drawn) the results were GIV-Gai inh 98.6 and HCMV UL50-53 inh -9.5.
CN(C)S(=O)(=O)c1ccc(C(=O)N=c2sc3cc(S(C)(=O)=O)ccc3n2C)cc1 was read as GIV-Gai inh 100.8, Sa growth 42C 92.2 and Sa growth 42C second temp 81.8.
Screening Cc1ccc2nc(COc3cccc(NC(=O)COc4ccc(F)cc4)c3)cc(=O)n2c1 returned GIV-Gai inh 104.6, Sa growth 42C 104.1 and Sa growth 42C second temp 90.2.
O=C(CSc1nccc(=O)[nH]1)NN(c1ccccc1)c1ccccc1 was read as Sa growth 42C 119.0, HCMV UL50-53 inh -16.4 and Sa growth 42C second temp 84.1.
CCOC(=O)C(CC)n1cnc2c(nnn2Cc2ccc(C)cc2)c1=O (stereo not drawn) was read as GIV-Gai inh 112.1, Sa growth 42C 93.6, HCMV UL50-53 inh 4.3 and Sa growth 42C second temp 97.2.
`CC1CN2C(=O)Cc3c(S(=O)(=O)N4CCc5ccccc54)ccc(c32)S1` (stereo not drawn) gave GIV-Gai inh 108.8 and HCMV UL50-53 inh -6.4.
For Cc1ccc(NC(=O)C(=O)NCc2ccco2)cc1 the results were GIV-Gai inh 103.9, Sa growth 42C 99.8, HCMV UL50-53 inh 0.2 and Sa growth 42C second temp 98.4.
`CCn1c(=O)c2c(C(=O)N3CCN(C4CCCCC4)CC3)cc(=O)n(CC)c2n(C)c1=O` gave GIV-Gai inh 108.2 and HCMV UL50-53 inh 1.3.
`CCCCNC(=O)CCn1c(=O)c2ccccc2n(Cc2ccccc2C#N)c1=O` gave GIV-Gai inh 101.1, Sa growth 42C 104.5, HCMV UL50-53 inh -14.2 and Sa growth 42C second temp 88.0.
Screening O=C(O)CCSc1nc2ccccc2[nH]1 returned GIV-Gai inh 99.8, Sa growth 42C 90.3, HCMV UL50-53 inh -24.1 and Sa growth 42C second temp 89.1.
N#Cc1ccc(OC(=O)c2cc(-c3ccc4c(c3)OCCO4)on2)cc1 was read as GIV-Gai inh 103.4, Sa growth 42C 97.7, HCMV UL50-53 inh 16.8 and Sa growth 42C second temp 86.6.
